High-throughput results (PubChem)
GALR2 ag = activates the human galanin receptor 2; 140,000 tested, 0.48% active; AID 803; GALR2-expressing cells, agonist activation read-out; O43603; activation, %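 (tested at 5 µM)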;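 active = above mean plus 3 SD of all compounds, about 5% in these data, not always enough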;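 note: 0% = vehicle buffer wells and 100% = reference agonist at full effect; tested in CHO reporter cells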
Target sequence (O43603 whole entry, looked up): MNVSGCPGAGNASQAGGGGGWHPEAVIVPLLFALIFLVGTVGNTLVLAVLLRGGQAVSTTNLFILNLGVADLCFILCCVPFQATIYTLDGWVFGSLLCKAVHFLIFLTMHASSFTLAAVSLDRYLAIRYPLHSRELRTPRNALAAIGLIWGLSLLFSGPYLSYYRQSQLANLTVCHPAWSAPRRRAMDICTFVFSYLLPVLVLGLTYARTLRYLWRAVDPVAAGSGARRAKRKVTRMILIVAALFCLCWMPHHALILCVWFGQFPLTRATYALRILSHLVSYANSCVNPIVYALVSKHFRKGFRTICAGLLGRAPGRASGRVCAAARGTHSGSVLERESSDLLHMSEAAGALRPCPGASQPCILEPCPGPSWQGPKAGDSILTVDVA
RGS16-Gao = modulates binding between human RGS16 and Galphao. bead-based flow cytometry RGS16-Galphao binding, fluorescence; actives lie on both sides. O15492+P09471. 220,000 tested, 0.38% active. binding response (% of control), % at 10 µM;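 active = below 25% or above 175%, edge rows of some plates excepted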;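 note: Galphao activated by GDP with aluminum fluoride before binding; 100% = wells without compound and 0% = beads without RGS; some results beyond the cut were filed as inactive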
Target sequence (O15492 whole entry, looked up): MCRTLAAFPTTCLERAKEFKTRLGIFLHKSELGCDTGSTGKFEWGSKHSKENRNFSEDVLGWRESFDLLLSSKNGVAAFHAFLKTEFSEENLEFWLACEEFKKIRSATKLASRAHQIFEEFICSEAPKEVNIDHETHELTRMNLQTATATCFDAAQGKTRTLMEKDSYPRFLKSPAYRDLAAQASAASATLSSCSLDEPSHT
Target sequence (P09471 whole entry, looked up): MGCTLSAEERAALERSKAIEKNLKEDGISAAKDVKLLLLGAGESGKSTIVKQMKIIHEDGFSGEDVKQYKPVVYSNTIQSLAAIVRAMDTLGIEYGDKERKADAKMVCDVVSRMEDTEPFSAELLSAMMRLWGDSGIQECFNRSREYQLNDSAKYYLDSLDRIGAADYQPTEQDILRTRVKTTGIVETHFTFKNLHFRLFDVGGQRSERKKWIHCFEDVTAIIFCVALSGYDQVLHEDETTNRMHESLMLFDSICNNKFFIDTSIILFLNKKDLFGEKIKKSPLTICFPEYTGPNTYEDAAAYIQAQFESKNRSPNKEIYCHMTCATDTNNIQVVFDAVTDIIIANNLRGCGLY
PKD1 inh = blocks activity of human protein kinase D1 | Q15139 | PKD1 kinase fluorescence polarization assay | inhibition, %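 (about 10 µM by stock and volumes)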 | 200,000 tested, 0.056% active | AID 797;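 active = inhibition of 50% or more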;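 note: controls were vehicle for no effect and a reference inhibitor for full effect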
INS promoter inh = TRM-6 insulin promoter activity inhibition. TRM-6 cells (human fetal islet line), insulin promoter-eGFP reporter, imaging; reporter expression induced with tamoxifen. inhibition, % at 2 µM. 130,000 tested, 0.9% active. AID 1273;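 active = inhibition above the mean plus 3 SD, with well images judged a real hit on visual review, cut at about 60% in these data, passing the limit was not always enough; inconclusive = inhibition over the cutoff but images rejected on review; inactive = inhibition not above the cutoff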
HSV replic up = increases HSV replication in cells | HSV replication augmentation in cells, fold increase | maximum fold increase | 220,000 tested, 0.005% active | AID 1956;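 active = peak rise of 1.5-fold or more in the series; inconclusive = self-fluorescent or not available for retest; tested in PC3 cells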;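 note: first round at 10 µM; read as green reporter fluorescence; hits show the peak of a series up to 25 µM; 1 = signal of infected wells without compound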
INS promoter inh cell count = second read-out of INS promoter inh, no call of its own (marks repeat the call); normalized cell count, %; measured here: cell count, toxicity; reference of the scale not given here;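 cells exposed to compound for 48 h; stained nuclei by imaging scaled within each plate; lower means fewer cells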
HSV replic up primary fold = second read-out of HSV replic up, no call of its own (marks repeat the call); fold increase; compound at 10 µM; measured here: primary screen fold increase 10 uM; tested in PC3 cells;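 GFP signal in the first replicate; 1 = infected wells without compound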
An asterisk follows results filed as active; i = inactive; ? = inconclusive; nt = not tested or not shown. Random draw from the library, and some 1.2% of all compounds hit somewhere here.

SMILES	GALR2 ag	RGS16-Gao	PKD1 inh	INS promoter inh	INS promoter inh cell count	HSV replic up	HSV replic up primary fold
Cc1c(C(=O)OCC(C)C)[nH]c2c1C(=O)CC(c1cccs1)C2 (stereo not drawn)	5.6	101	-7	-100	86	i	0.65
O=C(C(c1ccccc1)c1ccccc1)N1CCN(Cc2ccco2)CC1	-1.6	82	-4	-237	124	nt	nt
CCc1ccc2[nH]c(=O)c(C(c3nnnn3CCOC)N3CCN(c4ccccc4)CC3)cc2c1 (stereo not drawn)	-2.7	84	-6	16	129	i	0.98
NC(=O)C1CCN(c2oc(-c3ccccc3F)nc2S(=O)(=O)c2ccc(Cl)cc2)CC1	-0.1	89	-2	0	143	i	0.98
O=C(Cc1ccccc1)NC(Nc1ccccc1)C(Cl)(Cl)Cl (stereo not drawn)	0.8	104	1	-14	65	i	1.1
COc1ccc(C2CC(c3ccc4ccccc4c3)=NN2C(=O)CN2C(=O)CCC2=O)cc1 (stereo not drawn)	nt	101	8	nt	nt	i	0.89
c1ccc(-c2cc3n(c2)CCc2ccccc2-3)cc1	-0.8	74	-8	-81	141	i	0.88
COc1ccc(CN2CCNC(=O)C2CC(=O)NCCc2c[nH]c3ccccc23)c(OC)c1 (stereo not drawn)	nt	102	1	nt	nt	i	0.88
CC(=O)c1c(C)nn(CC(O)COc2ccc3c(c2)CCC3)c1C (stereo not drawn)	-1.9	101	7	-23	179	i	0.95
COc1ccc(-n2nnc3c(=O)n(CC(=O)NCC4CCCO4)cnc32)cc1 (stereo not drawn)	-0.3	102	-4	-11	63	i	1
Cc1ccccc1OCCn1nc(C(=O)O)c2ccccc2c1=O	-1.4	111	9	nt	nt	i	0.8
NC(=O)CCCc1nc(-c2ccccc2)no1	nt	92	nt	nt	nt	i	1
CC1=C(C(=O)Nc2ccccc2)C2(CCCCC2)C(C(N)=O)C(=S)N1 (stereo not drawn)	-0.5	105	-2	18	104	i	0.99
Cc1ccc(S(=O)(=O)N(CC(=O)N/N=C\c2cccs2)c2cccc3cccnc23)cc1	0.7	99	-15	-253	116	i	0.77
CCOc1ccc(N(CC(=O)NCc2ccco2)S(=O)(=O)c2ccc(OC)c(OC)c2)cc1	0.1	104	-3	-42	102	i	0.98
O=Cc1c(N2CCCCCC2)nc2ccccn2c1=O	-1.9	85	-7	6	105	i	0.78
C=CCNc1nc(SCC=C)nc2ccsc12	-0.1	92	8	83*	111*	nt	nt
C/C(=N\OC(=O)c1ccc(Cl)cc1)c1sc(-c2ccccc2)nc1C	-0.6	103	0	-15	87	i	1
CCC(=O)N1CCC(C(N)=O)(N2CCCCC2)CC1	nt	417	1	nt	nt	i	0.86
C/C=C/C=N/NC(=O)CN(c1ccc(Br)cc1)S(=O)(=O)c1ccccc1	-1.5	103	-6	3	138	i	0.91
CC1(C)CC(=O)c2cnc(NC3CC3)nc2C1	nt	109	6	6	91	i	1
COc1ccc(Cl)cc1CSc1n[nH]c(C)n1	-3.6	98	16	nt	nt	i	1
Cc1cc(C)nc(SCC(N)=O)n1	nt	107	nt	nt	nt	i	0.91
NC(=O)C1CCN(CCC(=O)Nc2ccc(Br)cc2)CC1	-2.3	102	10	nt	nt	i	0.87

Overlap with the part before: 6 entries; new compounds follow.
SMILES	GALR2 ag	RGS16-Gao	PKD1 inh	INS promoter inh	INS promoter inh cell count	HSV replic up	HSV replic up primary fold
CCC(=O)N1CCC(C(N)=O)(N2CCCCC2)CC1	nt	417	1	nt	nt	i	0.86
C/C=C/C=N/NC(=O)CN(c1ccc(Br)cc1)S(=O)(=O)c1ccccc1	-1.5	103	-6	3	138	i	0.91
CC1(C)CC(=O)c2cnc(NC3CC3)nc2C1	nt	109	6	6	91	i	1
COc1ccc(Cl)cc1CSc1n[nH]c(C)n1	-3.6	98	16	nt	nt	i	1
Cc1cc(C)nc(SCC(N)=O)n1	nt	107	nt	nt	nt	i	0.91
NC(=O)C1CCN(CCC(=O)Nc2ccc(Br)cc2)CC1	-2.3	102	10	nt	nt	i	0.87
Cc1ccc(NC(=S)NC2CC3CCC(C2)N3Cc2ccco2)cc1C (stereo not drawn)	-1.3	102	0	nt	nt	i	0.87
O=C(O)/C=C/C(=O)Nc1ccc(S(=O)(=O)N2CCCC2)cc1	nt	100	-4	-40	87	i	0.97
O=C(CN1C(=O)c2ccccc2S1(=O)=O)N1CCN(c2cccc(Cl)c2)CC1	-2.7	nt	0	39	81	i	1
Cn1c(=O)c(Nc2ccc(O)cc2)c2c3c(cccc31)C(=O)c1ccccc1-2	0.6	75	17	19	89	?	nt
CC1c2nc3ccccc3n2C(CC(=O)NC2CC2)C(=O)N1Cc1ccccc1 (stereo not drawn)	nt	104	0	-36	127	i	0.96
CCOc1ccccc1NC(=O)C1CCCN(S(=O)(=O)c2cccc3cccnc23)C1 (stereo not drawn)	1.9	129	-5	nt	nt	i	0.79
O=C(NCCCN1CCOCC1)c1ccccc1NS(=O)(=O)c1ccc(Br)cc1	nt	98	-1	nt	nt	i	0.92
COC(=O)CCc1c(C)c(C(=O)c2ccco2)c2ccccn12	-0.9	79	-14	nt	nt	i	1.1
C=CCOC(=O)C1=C(C)NC(C)=C(C(=O)OCC=C)C1c1ccc(C)o1	nt	96	nt	nt	nt	i	1.1
CC(C)CC(=O)Nc1nc2ccc(S(=O)(=O)N3CCOCC3)cc2s1	-1.4	99	-3	-24	84	i	0.95
Cc1ccccc1OCc1nc2ccccc2c(=O)n1N	-1.1	104	-6	33	100	i	0.98
CCC(=O)N1CCc2cc(OC)c(OC)cc2C1COc1ccccc1OC (stereo not drawn)	nt	104	0	0	78	i	0.87
COc1ccc(Cn2cnc3c([N+](=O)[O-])c(C)c(C)cc32)cc1	-1.2	99	3	nt	nt	i	0.85
O=C(CNS(=O)(=O)c1ccccc1)OCC(=O)c1ccc(OC(=O)c2ccccc2)cc1	-2.1	137	5	0	112	i	0.85
CCOC(=O)N1CCN(C(=O)C(NS(=O)(=O)c2cccc3nsnc23)c2ccccc2)CC1 (stereo not drawn)	-0.4	98	-2	14	126	i	0.99
Cc1ccsc1CN(C)C(=O)CCc1nnc(COc2ccccc2)o1	nt	104	1	nt	nt	i	0.98
CCN(CC)C(=O)CSc1nc(O)cc(=O)n1-c1ccccc1OC	-1.1	nt	-2	23	115	i	1.1
CCCn1c(=O)c2ccccc2n2c(SCC(=O)/C(C#N)=C(\C)N)nnc12	-0.9	98	-1	nt	nt	i	0.87
Cc1c(C(=O)NCc2ccc3c(c2)OCO3)sc2nc(-c3ccccc3)cn12	-2.9	101	-1	nt	nt	i	1.2
CCOc1ccc(Oc2cc(C)nc(SC)n2)nn1	-1.0	62	-1	25	100	i	1
COc1ccc(CCNC(=O)c2sc(=S)n(C)c2N)cc1	-0.8	101	10	-15	135	i	0.99
CC(C)(C)NC(=O)CN(C(=O)CSc1nnc(COc2ccccc2)o1)c1cccc(F)c1	-0.7	22	-4	nt	nt	i	0.86
O=C(CC12CC3CC(CC(C3)C1)C2)NC(=S)Nc1ccc(CN2CCOCC2)cc1	nt	103	-9	nt	nt	i	0.81
COC(=O)c1ccc(CSc2nnc3sc4ccccc4n23)o1	-0.5	109	-4	nt	nt	i	0.93
Cc1noc(C)c1COc1ccc(C(=O)Nc2ccccc2)cc1	nt	100	-6	-40	152	i	0.81
COC(=O)c1ccc(NC(=O)Nc2ccccc2F)cc1	nt	103	-9	nt	nt	i	0.96
CC(=O)OC(C(=O)NCc1ccco1)c1cccnc1 (stereo not drawn)	-0.2	92	-3	76*	61*	i	0.93
COc1ccccc1N1CCN(CCCCCCOc2ccc(F)cc2)CC1	-2.1	101	-1	-29	107	i	0.83
Cc1nc2ccc(Cl)cc2nc1C	nt	96	nt	nt	nt	i	1.1
O=C(CSc1nnc(-c2ccncc2)n1-c1ccccc1)Nc1ccc(C(=O)O)cc1	nt	117	1	nt	nt	i	1.3
COc1ccc(Cl)cc1N/C(N)=N/c1nc(CSc2ccc(C)cc2)cc(=O)[nH]1	-1.9	101	-3	nt	nt	i	0.85
Cc1ccc(-c2ccc(SCC(=O)N3CCCc4ccccc43)nn2)cc1	-0.5	97	9	nt	nt	i	0.99
N=c1c2c(-c3ccccc3)c(-c3ccccc3)n(Cc3ccco3)c2ncn1CCCn1ccnc1	0.8	101	0	-85	81	nt	nt
COC(=O)c1ccccc1OC(=O)c1ccc(Br)o1	-1.1	104	-4	-59	97	i	0.84
O=C(Nc1ccc2c(c1)C(=O)N(c1ccccc1)C2=O)c1cccs1	nt	102	7	nt	nt	i	0.95
CC(NC(=O)CSc1nc(=O)cc(N)n1-c1ccccc1)c1ccccc1 (stereo not drawn)	0.4	98	-7	7	124	i	0.99
Cc1cc(CNC(=O)Cc2c(F)cccc2Cl)nn1C	-2.3	75	-6	53	87	i	1
CCN(CC)c1ccc(/C=N/N2CCN(Cc3cccc4ccccc34)CC2)c(O)c1	-2.8	101	14	nt	nt	i	0.93
O=C(COC(=O)c1ccc(F)cc1F)NC1CC1	nt	123	1	0	67	i	0.95
COc1ccc(-c2nc3cc([N+](=O)[O-])ccc3o2)cc1OC	nt	103	3	nt	nt	i	0.94
CN(C)S(=O)(=O)c1cccc(NS(=O)(=O)c2ccc(Cl)s2)c1	-1.6	111	-12	0	135	nt	nt
C/C(Cc1ccccc1)=N\NC(=O)CCCCCC(=O)N/N=C(\C)Cc1ccccc1	-4.2	102	9	35	69	i	1
O=C(COC(=O)c1ccccn1)NC12CC3CC(CC(C3)C1)C2	-0.9	98	-7	0	129	i	0.78
O=C1CCCc2nc3c(cc21)C(O)Oc1c-3ccc2ccccc12 (stereo not drawn)	nt	101	4	53	139	i	0.9
O=C(Cn1c(-c2ccccn2)nc2ccccc21)N/N=C/c1ccccn1	nt	101	-4	56	87	i	1
N/C(=N\NC(=O)c1sccc1OCc1ccc(Cl)cc1Cl)c1ccccn1	nt	102	2	-41	108	i	0.81
COC(CN(C(=O)CCl)C(C(=O)NC1CCCC(C)C1C)c1ccc(C)cc1)OC (stereo not drawn)	-0.8	135	-5	0	73	i	1
CC(=O)O[C@]1(C(C)=O)CC[C@H]2[C@@H]3C=C(Cl)C4=CC(=O)CC[C@]4(C)[C@H]3CC[C@@]21C	2.0	53	1	-5	51	i	0.8

Single values from the list:
NC(=O)C1CCN(CCC(=O)Nc2ccc(Br)cc2)CC1 in PKD1 inh = 10
CCN(CC)C(=O)CSc1nc(O)cc(=O)n1-c1ccccc1OC in PKD1 inh = -2

Continuation:
SMILES	GALR2 ag	RGS16-Gao	PKD1 inh	INS promoter inh	INS promoter inh cell count	HSV replic up	HSV replic up primary fold
COC(=O)c1c(C)nc(C)c2c(=O)oc3ccccc3c12	0.1	99	0	-11	109	i	0.92
CCc1nnc(NC(=O)c2cccnc2)s1	-0.8	105	-6	12	106	i	0.93
CCCn1nc(CC(=O)OCC)c2ccccc2c1=O	-0.2	97	-9	-31	140	i	1.1
CC(=O)SC1CC(=O)N(c2ccc(C(C)(C)C)cc2)C1=O (stereo not drawn)	nt	96	nt	nt	nt	i	1.1
CC(C)(C)NC(=O)CSC(=Nc1ccc(F)cc1)NC#N	-1.8	99	-11	-12	138	i	1.2
O=C1OCCC1Sc1nnc(-c2cccc(Br)c2)o1 (stereo not drawn)	-1.8	97	-1	-56	109	i	1.1
CCCNC(=O)NC(=O)CSc1ncc(C(F)(F)F)cc1Cl	-2.5	108	3	0	101	i	0.96
CC1(C)Cc2ccccc2C(/C(=N\Nc2cccc(Cl)c2)C(N)=O)=N1	-0.8	29	-6	-14	106	i	0.83
Fc1ccccc1NC(=S)N(CCN1CCCCC1)Cc1ccco1	nt	102	0	-33	124	i	0.9
CCNc1ccc(S(=O)(=O)NCCN(C)C)cc1[N+](=O)[O-]	nt	94	0	nt	nt	i	0.94
CC(C)C(NC(=O)c1ccco1)C(=O)OCC(=O)Nc1ccc(C(N)=O)cc1 (stereo not drawn)	nt	103	1	nt	nt	i	0.94
O=C(COC(=O)c1c[nH]c(=O)[nH]c1=O)Nc1ccccc1Br	nt	103	nt	nt	nt	i	1
CCN(CC)S(=O)(=O)c1ccc(C)c(NC(=O)CSc2nc3ccccc3[nH]2)c1	-1.2	106	-1	-33	56	i	0.79
